KCNQ2 inh: KCNQ2 potassium channel inhibitors, primary screen, cell-based, CHO-K1, FluxOR thallium flux, B-score (AID 2156) | O88943 | B-score at 10 µM | 20 min; stronger effect = lower value; only compounds with negative scores are shown here; some inactives read as strong as hits | 1.1% of 310,000 active;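 active = fluorescence ratio B-score at most minus 3 library SDs, with starting brightness B-score within 2 library SDs, cut at about -5.5 in these data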
Target sequence (O88943 whole entry, looked up): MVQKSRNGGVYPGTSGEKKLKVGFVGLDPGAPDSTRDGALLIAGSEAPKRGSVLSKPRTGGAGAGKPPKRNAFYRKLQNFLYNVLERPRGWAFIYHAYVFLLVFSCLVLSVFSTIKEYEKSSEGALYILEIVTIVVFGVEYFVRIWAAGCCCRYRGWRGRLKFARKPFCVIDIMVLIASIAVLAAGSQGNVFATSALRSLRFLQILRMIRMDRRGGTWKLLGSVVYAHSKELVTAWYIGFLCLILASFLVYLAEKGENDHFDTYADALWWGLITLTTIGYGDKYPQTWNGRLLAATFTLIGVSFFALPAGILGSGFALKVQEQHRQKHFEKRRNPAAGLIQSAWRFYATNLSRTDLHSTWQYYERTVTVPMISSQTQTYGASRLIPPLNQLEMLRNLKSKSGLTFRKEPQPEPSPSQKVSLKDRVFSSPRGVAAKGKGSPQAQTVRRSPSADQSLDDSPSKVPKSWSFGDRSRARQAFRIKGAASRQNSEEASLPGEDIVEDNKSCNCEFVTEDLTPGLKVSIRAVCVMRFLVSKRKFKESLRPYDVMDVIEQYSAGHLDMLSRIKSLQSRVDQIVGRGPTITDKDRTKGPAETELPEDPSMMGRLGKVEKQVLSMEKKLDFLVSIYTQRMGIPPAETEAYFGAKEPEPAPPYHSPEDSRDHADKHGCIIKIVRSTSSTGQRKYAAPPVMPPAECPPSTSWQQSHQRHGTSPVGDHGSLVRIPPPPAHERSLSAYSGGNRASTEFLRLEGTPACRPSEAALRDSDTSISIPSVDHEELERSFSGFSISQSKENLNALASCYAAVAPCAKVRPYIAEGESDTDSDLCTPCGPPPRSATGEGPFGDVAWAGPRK
KCNQ2 inh baseline: second read-out of KCNQ2 inh, no call of its own (marks repeat the call); B-score; measured here: initial fluorescence intensity artifact check;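 brightness before thallium and not channel activity; 0 = typical well and far values either way flag optical interference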
An asterisk follows results filed as active; i = inactive.

SMILES	KCNQ2 inh	KCNQ2 inh baseline
COC(=O)c1ccc(COC(=O)c2ccc(N(C)C)cc2)cc1	i	0.02
O=C(c1cccnc1)N1CCN(C(=O)c2cccc(Cl)c2)CC1	i	1.8
Cc1noc(C)c1S(=O)(=O)N1CCC(C(=O)N2CCN(C3CCCC3)CC2)CC1	i	1.2
CCCCNc1nc(C)c(C(C)=O)cc1C#N	i	-0.01
CC(NC(=O)Cn1c(NCCO)nc2ccccc21)c1ccccc1 (configuration not stated)	i	0.71
O=C(NC(=S)Nc1ccc(S(=O)(=O)N2CCCCCC2)cc1)c1cccs1	i	-0.85
Cc1cccc(C)c1OCc1nnc(SCC(=O)Nc2nccs2)n1-c1ccccc1	i	0.69
CC(C)(CNC(=O)c1ccc(NS(=O)(=O)c2ccc(F)cc2)cc1)N1CCOCC1	i	0.45
Cc1cc(C)c(C#N)c(SCC(=O)c2cc(C)n(CCc3ccccc3)c2C)n1	-6.4*	-0.29*
COc1ccc(OC)c(N(CC(=O)NN=C2CCN(C)CC2)S(=O)(=O)c2ccccc2)c1	i	-0.8
CCOC(=O)Cc1nnc(NC(=O)c2cccc(OCC)c2)s1	i	0.37
O=C(NCc1ccco1)C1CCN(C(=O)c2cc3sccc3n2Cc2ccc(Cl)cc2)CC1	i	0.82
O=C(C1CCCCC1)N1CCN(S(=O)(=O)c2cccc([N+](=O)[O-])c2)CC1	i	-1.1
COc1cc([N+](=O)[O-])cc2cc(C(=O)NC(C)(C)C)c(=O)oc12	i	-0.29
O=C(NCC1CCCO1)C1CCCN(Cc2cnn(-c3ccccc3)c2-n2cccc2)C1 (configuration not stated)	i	0.07
Cc1cccc(C)c1-n1c(SCC(=O)Nc2ccc(C(=O)O)cc2)nnc1-c1cccc(S(=O)(=O)N(C)C)c1	i	-0.65
COC(=O)c1cnc(N2CCCN(S(=O)(=O)c3ccccc3)CC2)nc1C(F)(F)F	i	1.4
CN(c1ccc(C(=O)O)cc1)S(=O)(=O)c1ccccc1	i	0.01
Cc1ccc(S(=O)(=O)/N=C(\N)Nc2nc(C)c3ccc(C)cc3n2)cc1	i	0.05
COc1ccc(-n2cnc3cc([N+](=O)[O-])ccc32)cc1	i	0.68
C=CCNC(=O)C12CC3CC(C1)CC(C(=O)NCC=C)(C3)C2	i	-0.03
CCc1ccc(C2CC(c3cccc(OC)c3)n3nc(N)nc3N2)cc1 (configuration not stated)	i	1.3
CCOC(=O)C1CCN(S(=O)(=O)c2cccc(-c3cn4ccccc4n3)c2)CC1	i	-0.32
O=c1[nH]nc(CNc2ccc(O)cc2)c2ccccc12	i	-0.86
COc1ccc(C(C)=O)cc1COc1cccc2cccnc12	i	-0.01
O=C(O)c1ccc2c(c1)C(=O)N(C(Cc1ccccc1)C(=O)O)C2=O (configuration not stated)	i	2.2
CCOc1ccc(CCNC(=O)c2nccnc2C(=O)O)cc1OCC	i	0.02
CS(=O)(=O)N1N=C(c2ccc(Br)cc2)CC1c1cccs1 (configuration not stated)	i	0.33
O=C(Oc1ccc(F)cc1)c1ccc2c(=O)n3c(nc2c1)CCC3	i	-1.5
Cn1cc(C(=O)c2ccccc2)cc1-c1nc2ccccc2n1C	i	-0.35

Looked up one by one from the list above (4):
SMILES	KCNQ2 inh	KCNQ2 inh baseline
CCOC(=O)C1CCN(S(=O)(=O)c2cccc(-c3cn4ccccc4n3)c2)CC1	i	-0.32
CCOc1ccc(CCNC(=O)c2nccnc2C(=O)O)cc1OCC	i	0.02
O=c1[nH]nc(CNc2ccc(O)cc2)c2ccccc12	i	-0.86
COc1ccc(C(C)=O)cc1COc1cccc2cccnc12	i	-0.01

The listing continues.
SMILES	KCNQ2 inh	KCNQ2 inh baseline
COc1ccccc1N(C)S(=O)(=O)c1ccc(C(=O)OCC(=O)NCC(F)(F)F)cc1	i	-1.1
C=C(C)C1CC=C(C)/C(=N\NC(=O)CCC(=O)Nc2ccc(C)c(C)c2)C1 (configuration not stated)	i	-0.94
O=C(CCCC(=O)c1ccccc1)NCCc1ccccc1	i	0.02
CCc1ccc(CN2CCC(n3nccc3NC(=O)c3ccccc3C)CC2)cc1	i	-1.1
COc1ccc(C(=O)OC(C(=O)c2ccccc2)c2ccccc2)cc1 (configuration not stated)	i	0.96
Cc1ccc(S(=O)(=O)n2cnc3cc([N+](=O)[O-])ccc32)cc1C	i	0.88
Cc1cccc(C(=O)NC2C(=O)NNC2c2ccc(Cl)cc2)c1 (configuration not stated)	i	-0.68
Cc1cc(C)c(C#N)c(SCCS(=O)(=O)c2ccc(C(C)(C)C)cc2)n1	i	-0.95
O=C(CCS(=O)(=O)c1ccc2c(c1)NC(=O)CS2)NCCc1ccc(Cl)cc1	i	1.6
COc1ccc(-n2nc3c(c2NC(=O)C2CC(=O)N(c4ccccc4)C2)CS(=O)(=O)C3)cc1 (configuration not stated)	i	0.39

Three of these compounds in a different format:
> CCc1ccc(CN2CCC(n3nccc3NC(=O)c3ccccc3C)CC2)cc1
- KCNQ2 inh: i
- KCNQ2 inh baseline: -1.1

> C=C(C)C1CC=C(C)/C(=N\NC(=O)CCC(=O)Nc2ccc(C)c(C)c2)C1 (configuration not stated)
- KCNQ2 inh: i
- KCNQ2 inh baseline: -0.94

> O=C(CCCC(=O)c1ccccc1)NCCc1ccccc1
- KCNQ2 inh: i
- KCNQ2 inh baseline: 0.02

Remaining list, next part
SMILES	KCNQ2 inh	KCNQ2 inh baseline
CC(NC(=O)c1ccc(OC2CCN(C(=O)c3cccnc3)CC2)cc1)C1CC1 (configuration not stated)	i	-2.5
Cc1ccsc1/C=C/c1ccc2ccccc2n1	i	0.81
CN1CCC(NCCC(c2ccc(F)cc2)c2ccc(Cl)cc2)CC1 (configuration not stated)	i	0.04
O=C(O)c1nn(-c2ccccc2)ccc1=O	i	-0.4
COc1ccc(NC2CCCN(C(=O)c3ccncc3)C2)cc1 (configuration not stated)	i	0.08
CCc1c(C)sc(NC(NC(C)=O)(C(=O)OC)C(F)(F)F)c1C#N (configuration not stated)	i	0.35
Clc1ccc(C2[C@H]3CN(Cc4ccc(-c5ccccc5)cc4)[C@H](c4ccccc4)C34CC2(c2cccnc2)C4)cn1 (some centres not stated)	i	-1.7
Cc1ccc(-c2nc3sc(C#N)c(N)n3c(=O)c2C#N)cc1	i	0.66
COc1ccc(NC(=S)NC2CC3CCC(C2)N3Cc2ccco2)cc1 (configuration not stated)	i	1.4
CCN(C(=O)[C@@H]1CCCN1C(=O)c1cccs1)c1nc2cc(Cl)ccc2s1	i	-0.15
O=C(COC(=O)C1=COCCO1)NC1CCCCCCC1	i	2.1
Cn1c(O)c(/C=N/NC(=O)c2cc3ccccc3cc2O)c2ccccc21	i	9.7
Cc1ccccc1CS(=O)(=O)c1nnc([C@H](CC(C)C)NC(=O)OC(C)(C)C)o1	-5.6*	1.4*
CCN(CC)C(=O)Cn1c(C)c(/C=C/c2cc[n+](C)cc2)c2ccccc21	i	16
O=C(c1cccc(C(=O)N2CCN(c3ccccc3F)CC2)n1)N1CCN(c2ccccc2F)CC1	i	-1.1
O=C(NC1CCN(S(=O)(=O)c2ccccc2F)CC1)c1ccco1	i	0.92
COC(=O)c1ccccc1OCCCOc1ccc(C)cc1OC	i	0.29
CCCCn1c(=O)c2c(c3ccccc31)OCC(=O)N2	i	-0.5
O=C(NCc1ccc(F)cc1)c1ccc(N2CCc3ccccc32)c([N+](=O)[O-])c1	i	0.67
CCN(CC)S(=O)(=O)c1ccc(N2CCOCC2)c(NC(=O)CNCCc2ccccc2)c1	i	1.2

A different layout for some results above.
> CCCCn1c(=O)c2c(c3ccccc31)OCC(=O)N2
- KCNQ2 inh: i
- KCNQ2 inh baseline: -0.5
> CCN(CC)S(=O)(=O)c1ccc(N2CCOCC2)c(NC(=O)CNCCc2ccccc2)c1
- KCNQ2 inh: i
- KCNQ2 inh baseline: 1.2
> CCN(CC)C(=O)Cn1c(C)c(/C=C/c2cc[n+](C)cc2)c2ccccc21
- KCNQ2 inh: i
- KCNQ2 inh baseline: 16
> O=C(c1cccc(C(=O)N2CCN(c3ccccc3F)CC2)n1)N1CCN(c2ccccc2F)CC1
- KCNQ2 inh: i
- KCNQ2 inh baseline: -1.1

Going on with the list.
SMILES	KCNQ2 inh	KCNQ2 inh baseline
CC(=O)N1c2ccccc2C2(C)C(C1(C)C)C2(Cl)Cl (configuration not stated)	i	-0.7
Cc1cccc(NC(=O)N2CCCC(CNC(=O)c3ccccc3Cl)C2)c1C (configuration not stated)	-8.2*	-1.4*
CC(C)CC(=O)NS(=O)(=O)c1ccc(NS(C)(=O)=O)cc1	i	1.8
CCOc1ccc(N2CC(C(=O)NCc3ccccn3)CC2=O)cc1 (configuration not stated)	i	-0.48
C(=N\Nc1nc(N2CCOCC2)nc(N2CCOCC2)n1)/c1ccco1	i	-0.5
COCCNC(=O)C(c1ccc(C)cc1)N(CCOC)C(=O)CCC(=O)Nc1ccccn1 (configuration not stated)	i	0.03
COc1ccc(-n2c(SCC(=O)c3c(N)n(C)c(=O)n(C)c3=O)nc3ccccc32)cc1	i	-0.08
CN1C(=O)NC(c2ccc(O)cc2)C2=C1CN(c1ccc(O)cc1)C2=O (configuration not stated)	i	-0.62
COc1ccc(CN2CSC(=S)N(Cc3ccc(OC)cc3)C2)cc1	i	-1.1
O=C(CCSCCc1ccccn1)Nc1ccc(Cl)cn1	i	0.01
O=C(OCCN=C1NS(=O)(=O)c2ccccc21)C1CC(=O)N(c2ccc3ccccc3c2)C1 (configuration not stated)	i	1.2
O=C(Nc1ccc(-c2nnc(-c3ccccc3)o2)cc1)C(F)(F)F	i	2
COc1cc(-c2noc(C)c2C#Cc2ccccn2)cc(OC)c1OC	i	2.5
O=C(NCCCNC(=O)c1cc(Cl)ccc1Cl)c1ccco1	i	-0.13
CC(=O)N1CCN(c2ccccc2NC(=O)COc2ccccc2C)CC1	i	-0.39
CCOc1ccc2nc(N(CCN(C)C)C(=O)c3ccc4c(c3)CCCC4)sc2c1	i	0.35
O=C1CN(CC(=O)N2CCOCC2)c2ccccc2O1	i	-0.39
Cc1ccc(C)c(NC(=O)CN(C)C(=O)Cc2ccccc2)c1	i	-0.16
CCOc1ccccc1-c1nc(-c2cccc(Br)c2)no1	i	-0.04
O=C(NNS(=O)(=O)c1ccc([N+](=O)[O-])cc1)c1ccc([N+](=O)[O-])cc1	i	0.7
CC(C)(c1ccccc1)c1ccc(OCCN)cc1	i	1.5
O=C(NN=C1CCCCCC1)c1cc2ccccc2cc1O	i	1.1
COc1cc(C(=S)N2CCOCC2)ccc1OC(=O)c1cccc(C)c1	i	0.06
CCCNS(=O)(=O)c1cccc(C(=O)NC2CCCc3ccccc32)c1 (configuration not stated)	i	0.07
O=C(Cn1nc(-c2ccccc2)c2ccccc2c1=O)Nc1ccc2c(c1)nc1n2CCOC1	i	0.01
O=C(Nc1ccc2c(c1)OCO2)c1cccc2c1C(=O)N(C1CCCCC1)C2	i	0.69
O=S(=O)(NCCc1ccc(Cl)cc1)c1cccs1	i	0.91
Cc1ccc[n+](CC(=O)Nc2ccc(C)c(C)c2)c1	i	0.84
COc1ccccc1/C=N/OCc1ccc(C#N)cc1	i	-1
Cc1ccc(CSCc2ccc(C(=O)NC3CCCC3)o2)cc1	i	0.01
Cc1ccc(S(=O)(=O)N2CCOCC2)cc1NC(=O)COc1ccc(-c2nnco2)cc1	i	-0.16
Clc1ccc(OCc2noc(-c3ccsc3)n2)c(Cl)c1	i	-0.9
C=CCNC(=O)c1cc2sccc2n1C	i	1.9
CC(C)NS(=O)(=O)c1ccc(Oc2ncc(C(F)(F)F)cc2Cl)cc1	i	-2.3
CC1CCc2sc(C(=O)N(C)CC(=O)Nc3ccc(N4CCOCC4)cc3)cc2C1 (configuration not stated)	i	-2.3
O=C1OC(/C=C/c2ccccc2)=NC/1=C\c1cccnc1	i	-0.7
Cc1cccc(Sc2nc(-c3ccccc3)ccc2C#N)c1	i	0.1
Cc1cc(C)n(-c2nc3ccccc3c(=O)n2OCC(=O)OCc2ccccc2)n1	i	-1.2
CSc1c(-c2ccccn2)c(N)nn1C(=O)C1CC1	i	-0.17
Cc1ccc(C)c2[nH]c(=O)c(CN(Cc3ccco3)C(=O)Nc3ccccc3)cc12	-5.6*	-0.93*
CCc1ccc(NC(=O)Nn2cnnc2)cc1	i	0.26
O=c1[nH]c2ccccc2c(O)c1-c1ccccc1	i	-0.51
COc1cccc(OCCOc2ccc(/C=C3\C(=N)N4N=C(S(C)(=O)=O)SC4=NC3=O)cc2OC)c1	i	0.06
O=C1CCC(C(=O)N2CCCC(C(=O)c3ccc4ccccc4c3)C2)=NN1 (configuration not stated)	i	1.5
CSc1nc2c(c(=O)n1C)SC(C)C2 (configuration not stated)	i	0.97
CC1(C)C(=O)OC(C(=O)c2ccc(Cl)cc2)C(C)(C)C1=O (configuration not stated)	i	0.56
O=C(CSc1nc(=O)n(CCCN2CCOCC2)c2c1CCCC2)Nc1cccc(Cl)c1	i	0.09
O=C(O)COc1ccc(Br)cc1C(c1c(C(=O)O)[nH]c2ccccc12)c1c(C(=O)O)[nH]c2ccccc12	i	-0.83
Cc1cc(C)n(-c2n[nH]c(C)c2[N+](=O)[O-])n1	i	0.4
NNC(=O)c1csc(-c2cccc(C(F)(F)F)c2)n1	i	-0.29
Additional results:
SMILES	KCNQ2 inh	KCNQ2 inh baseline
C=CCN(CC(O)c1cccc([N+](=O)[O-])c1)C(C)CCc1ccccc1 (configuration not stated)	i	-0.29
CCCCc1c(O)nc2sc3cc(OC)ccc3n2c1=O	i	0.26
C=CCN1C(=O)c2ccc(C(=O)NCCOc3ccccc3F)cc2C1=O	i	-0.06
Cc1ccc(-c2csc(-c3c[nH]c4ccccc34)n2)c(C)c1	i	1.4
O=C(NNC1=NC2(CCCC2)Cc2ccccc21)c1ccncc1	i	-0.01
Cc1cccc(NC(=O)c2cc([N+](=O)[O-])ccc2N2CCN(C)CC2)c1	i	0.1
C/C(=N\NC(=O)CCc1ccc(S(=O)(=O)N2CCOCC2)cc1)c1ccc(Br)cc1	i	-0.97
CCN(c1c(C)n(C)n(-c2ccccc2)c1=O)S(C)(=O)=O	i	0.02

Screens deposited in PubChem by Johns Hopkins Ion Channel Center.

Not all compounds are listed; rates above refer to the full screens.
